# Screening results from PubChem.
# CapD inh – Bacillus anthracis CapD inhibitors, primary screen, biochemical, fluorescence intensity; CapD gamma-glutamyltranspeptidase (Bacillus anthracis Ames Ancestor); purified CapD enzyme, fluorescence intensity read-out; active compounds read low; some hits fall short of the stated cut; z-score (concentration not given with the values); 0.23% of 140,000 active; AID 492967, 2010;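 active means z-score under -4 in either of two replicates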;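 further: stock transfer was 100 nL into about 40 µL; score is relative to mean and spread of the plate; one replicate is shown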
# AID504770 – growth inhibition of E. coli YBA685, primary screen, V. cholerae RctB inhibitors; z-score (no concentration beside the values); 0.27% of 130,000 active; E. coli YBA685 rctB-dependent plasmid, OD600 growth, 3 h; active compounds read low;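 active means z-score under -2 on both plates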;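 further: wells of about 30 µL received 100 nL stock; score is relative to mean and SD of the test wells; the first replicate is given; strong numbers were not always called active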
# Starred values were filed as active, the others as inactive; x = not tested or not shown. Only part of the results is shown; the hit share may differ from the screen's.
SMILES,CapD inh,AID504770
c1ccc(Oc2cccc(CSc3ncn[nH]3)c2)cc1,-0.005,-0.5
O=[N+]([O-])c1ccccc1N1CCCCC1,-0.3,x
Cc1cccc(NC(=O)CSc2nnc3ccccn23)c1,0.53,0.9
OCCNCC(O)Cn1c2ccc(Cl)cc2c2cc(Cl)ccc21 (stereo not drawn),0.86,x
COc1ccc(C(=O)N2c3c(OC)cccc3-c3c(ssc3=S)C2(C)C)cc1,-0.22,x
N#C/C(=C\c1c(Oc2ccccc2)nc2ccccn2c1=O)S(=O)(=O)c1ccccc1,0.74,-0.4
CCOC(=O)C1=C(O)/C(=C/c2cccc(O)c2)SC1=Nc1ccc([N+](=O)[O-])cc1,-0.04,x
Clc1cccc(C=Nc2ccc(N3CCOCC3)cc2)c1Cl,-0.29,-0.3
CCCN(CCC)C(=O)c1cc2c(=O)n(CC)c3ccccc3c2s1,1.5,-0.85
Clc1ccc(Nc2c(-c3ccccn3)nc3cnccn23)cc1,-1.3,-0.35
O=C(Oc1c(Br)cc(Cl)c2cccnc12)N1CCOCC1,0.21,-0.3
O=C(Oc1ccc(-c2ccccc2)cc1)c1ccco1,-0.17,0.75
CC(NC(=O)c1nn(C)c(=O)c2ccccc12)c1ccc(F)cc1 (stereo not drawn),x,-0.9
CCOCCC(=O)Nc1nccs1,x,-0.6
O=C(O)CCSc1nc2ccccc2s1,x,-0.75
N#CCCN(C1CCCCC1)S(=O)(=O)c1cccc2nsnc12,0.42,-0.5
O=C(NCc1ccc2c(c1)OCO2)C1(S(=O)(=O)c2ccccc2)CC1,-0.22,1.5
O=c1c2cccnc2n(Cc2ccc(F)cc2)c(=O)n1Cc1ccc2c(c1)OCO2,0.39,1.2
CC(C)CN1C(=O)N(c2ccccc2)C(=O)C1CC(=O)Nc1ccccc1 (stereo not drawn),-0.55,0.05
O=C(O)CN1CCN(C(c2ccccc2)c2ccccc2)CC1,x,0.1
CC(=O)Nc1sc2c(c1C(=O)O)CCc1ccccc1-2,-0.26,-0.15
CC1C(=O)OC2(c3ccc(Br)cc3)C(C)C(=O)OC12 (stereo not drawn),-0.82,-0.9
CSc1ncc2c(=O)[nH]cnc2n1,1.1,-0.7
CCN(C(=O)Cc1nc(-c2ccc(OC)cc2)no1)c1ccccc1,-0.42,0.05
COC(=O)COc1ccc(C2C3=C(CC(C)(C)CC3=O)OC3=C2C(=O)CC(C)(C)C3)cc1OC,-0.59,x
COc1cc2c(cc1OC)C(C(Cl)(Cl)Cl)OC2=O (stereo not drawn),0.08,x
CSC1=NC(=Nc2ccccc2C)C2(CCC(C(C)(C)C)CC2)N1c1ccc(NC(C)=O)cc1 (stereo not drawn),-0.49,x
COc1ccc(-c2csc(N3CCCC3C(=O)OCc3ccccc3)n2)cc1 (stereo not drawn),-0.005,-0.15
COC(=O)CS(=O)(=O)c1cc(C)c(Cl)cc1Cl,-0.36,x
O=C1CCC2(C(=O)OCc3nc4ccccc4s3)Sc3ccccc3N12 (stereo not drawn),x,-0.1
COC(=O)c1ccc(-c2nn(C)c(=O)c3ccccc23)cc1,0.46,0.3
O=c1oc(-c2ccc(F)cc2)nn1CN1CCCC2CCCCC21 (stereo not drawn),x,0.1
Cc1ccc(C)c(NCc2ccccc2CO)c1,0.21,0.45
Oc1ccccc1-c1nc2ccccc2o1,1.3,-0.25
CC(C)(C)c1cc2cccnc2[nH]1,-0.06,-2.2
CN(C)C(=S)SCC(=O)N1N=C(c2ccc(Cl)cc2)CC1c1ccco1 (stereo not drawn),x,0.3
COc1ccc(OC)c(NC(=O)/C=C/C(=O)O)c1,0.26,x
CCOC(=O)c1c(NC(=O)CSCC(=O)O)sc2c1CCCC2,1.3,0.65
CC12CC(c3ccccc3)C(C#N)(C(=N)O1)C2(C#N)C#N (stereo not drawn),-0.46,x
Cc1cc(C)c(S(=O)(=O)c2ccccc2)c(Sc2ccc(Cl)cc2)n1,-0.04,x
Cc1nn(CCCC(=O)NCC2CCCO2)c(=O)c2cc3sccc3n12 (stereo not drawn),-1.1,-0.2
CCc1ccc(N2C(=O)CC(Sc3ccccc3N)C2=O)cc1 (stereo not drawn),-0.21,1.4
CCCC(=O)Nc1cc(C(=O)NC2CCCC2)ccc1S(=O)(=O)c1ccc(Cl)cc1,0.57,-0.9
Cc1ccc(S(=O)(=O)CC(=O)Nc2cc(Cl)ccc2N2CCOCC2)cc1,x,0.05
Cc1ccccc1N=C1c2ccccc2-c2nc3ccccc3cc21,-0.01,x

# By substructure: the entries above with bromine.
SMILES,CapD inh,AID504770
O=C(Oc1c(Br)cc(Cl)c2cccnc12)N1CCOCC1,0.21,-0.3
CC1C(=O)OC2(c3ccc(Br)cc3)C(C)C(=O)OC12 (stereo not drawn),-0.82,-0.9

# (continued)
SMILES,CapD inh,AID504770
Cc1cc2nc3s/c(=C\c4ccc(N5CCOCC5)c([N+](=O)[O-])c4)c(=O)n3c2cc1C,-0.085,x
CN(C(=O)/C=C/c1ccco1)c1c(N)n(Cc2ccccc2)c(=O)[nH]c1=O,x,0.25
CCc1ccc(NC(=O)COc2ncnc3ccccc23)cc1,0.17,1.6
COc1ccc(N2CCN(S(=O)(=O)c3ccc(OC)c(OC)c3)CC2)c(OC)c1,-0.34,x
CCNC(=O)c1sc(-c2ccccc2)nc1C,3.6,-0.3
COc1ccc(C(CNC(=S)NCc2ccco2)N2CCCCC2)cc1 (stereo not drawn),x,0.2
O=C(/C=C/NCc1ccccc1)C(F)(F)F,x,-0.8
C/C(N)=C(/C#N)C(=O)CSc1nc2ccccc2c(=O)[nH]1,x,-1
CNC(=O)c1cc(S(=O)(=O)N2CCCc3ccccc32)ccc1C,-0.15,2
Cn1ncc2c(=O)n(CC(=O)c3ccccc3)cnc21,0.64,-0.85
Cc1cc2c(=O)n(-c3ccccc3)c(=S)[nH]c2s1,-0.6,x
O=C(Cn1ncc2c(=O)oc3ccccc3c21)NCCc1ccsc1,-0.59,2.4
CCC1(C)Cc2nc3nc(SCC(=O)c4ccccc4)n(Cc4ccccc4)c(=O)c3cc2CO1 (stereo not drawn),1.5,0.55
CCCCn1c(SCC(=O)c2ccc(OC)cc2OC)nc2cc(S(N)(=O)=O)ccc21,x,-0.05
CC1=NOC(=O)C1C(c1cccc(Br)c1)c1c(C)[nH]n(-c2ccccc2)c1=O (stereo not drawn),-0.6,-1.6
Cc1cc(-c2onc(C)c2C(N)=O)no1,10,1
CN1CCN(C(=S)SCC(=O)Nc2nc(=O)c3ccccc3s2)CC1,-0.56,-0.2
Cc1nc2c(-c3ccccc3)c(C)nn2c(C)c1CCC(=O)NCCN1CCCC1,-0.41,-1.1
O=C1NC(=O)/C(=C/c2ccc(OC(=O)c3ccc(Cl)cc3)cc2)N1,-0.39,x
COc1cccc2cc(-c3csc(NC(=O)CCC(=O)NCc4ccc5c(c4)OCO5)n3)c(=O)oc12,2,x
COc1ccc(NC(=O)c2ccc(C)o2)cc1Cl,-0.39,-0.8
Cc1ccc(CN(C)S(=O)(=O)c2ccc(C(=O)NCC(F)(F)F)cc2)o1,x,-0.75
CN(C)CCCNc1nnc(Cc2ccccc2)c2ccccc12,-0.31,-0.05
CCOC(=O)c1c(NC(=O)c2ccc(Cl)c([N+](=O)[O-])c2)sc(C(=O)Nc2ccc(OC)cc2)c1C,0.31,x
CS/C(=C\C(=O)c1cccs1)NCc1ccco1,-0.56,0.65
Nc1nc(SCC(=O)Nc2ccc3c(c2)OCO3)n[nH]1,x,-0.3
CCCC(=O)CC(c1ccccc1)C1C(=O)c2ccccc2C1=O (stereo not drawn),-0.82,1.4
CSC1=NN(C)c2cnn(C)c(=O)c2S1,-2,1.5
COC(=O)c1c[nH]n2c(=O)c(Cc3ccc(C)cc3)c(C)nc12,8.1,-0.05
Cc1cc(SC/C(O)=C(\C#N)c2nc3ccccc3[nH]2)nc2ccccc12,x,-0.05
CCCCn1c(C)c(C(=O)OCC)c2cc(OC(=O)c3cccc([N+](=O)[O-])c3)c3ccccc3c21,-1.2,x
Cc1c(C)n(C(=O)CSc2ccc(Cl)cc2)c2ccccc12,0.13,-0.05
S=C1NC(c2ccccc2)=CC(c2ccc(Br)cc2)N1 (stereo not drawn),-0.24,x
CCCc1ccc(C(=O)Nc2cccnc2Oc2ccc(C(C)(C)C)cc2)cc1,0.2,x
CC(=O)Nc1ccc(NC2CCCCC2NS(=O)(=O)c2ccc(Cl)cc2)cc1 (stereo not drawn),-1.1,-0.5
O=C(c1nc2n(n1)C(c1ccc(Cl)cc1)C=C(c1ccccc1)N2)N1CCOCC1 (stereo not drawn),0.56,0.65
CN1CCC(=NNC(=O)c2ccc(CN(c3ccccc3)S(C)(=O)=O)cc2)CC1,0.69,0.1
O=C(NC1CC1)C1=NOC(CNc2ncc(C(F)(F)F)cc2Cl)C1 (stereo not drawn),-0.025,x
CCc1cc(C(=O)O)c(NC(=O)c2ccc(Br)cc2)s1,-0.31,0.55
CC(C)(C)OC(=O)N1CCC[C@H]1C(=O)Nc1ccc(C#N)cc1,x,0.25
COc1ccc(OC)c(NC(=O)C(Cc2ccccc2)NS(=O)(=O)c2cccc3nsnc23)c1 (stereo not drawn),-0.29,1.4
CC(=O)C1=NN(c2ccccc2)C(c2ccccc2OCc2ccc(Cl)cc2)N1C(C)(C)C (stereo not drawn),-0.13,x
COC(=O)c1ccc2c(=O)n(CCc3ccc(S(N)(=O)=O)cc3)c(SCC(=O)Nc3cc(C)on3)nc2c1,0.66,x
CCC(O)(CC)C12CC3CC(CC(C3)C1)C2,-1.1,1.8
CCOC(=O)N1CCC(NC(=O)c2cc3c(s2)CS(=O)(=O)C3)CC1,0.34,-0.7
Cc1cc(C)n(-c2c(Cl)cc(Cl)cc2Cl)n1,0.07,x
O=C(CNS(=O)(=O)c1ccccc1)Nc1c(-c2ccccc2)c2cc(Br)ccc2[nH]c1=O,0.17,1.1
COc1ccc(CNc2nnc(Cc3ccccc3)c3ccccc23)cc1,-0.07,x
NC(=O)c1ccsc1NC(=O)c1sc2ccccc2c1Cl,0.07,-0.2
O=C(NC(NC1CCCCC1)(C(F)(F)F)C(F)(F)F)c1ccccc1,-0.04,-0.4
CCOC(=O)C1CCN(Cn2c(=S)oc3ccc(S(=O)(=O)CC)cc32)CC1,x,0.15
Cc1cc(NC(c2cccc(Br)c2)c2ccc3cccnc3c2O)no1 (stereo not drawn),-0.32,-0.95
O=C(NC1CCCCC1)NC1CCN(Cc2nnnn2Cc2ccco2)CC1,x,-0.65
CN1/C(=C(\C#N)C(=O)CSc2nnc(-c3ccc(Cl)cc3)o2)Sc2ccccc21,x,1.1
CCN(CC)Cc1cc(NC(=O)OCCc2cccc(C)c2)ccc1O,-0.42,x
COc1ccc(C2CC(C(F)(F)F)n3nc(C(=O)Nc4ccccc4C(F)(F)F)cc3N2)cc1OC (stereo not drawn),0.05,x
CCN(CC)/C(C)=N/C(=S)Nc1ccccc1,x,0.1
CN(c1ccc(F)cc1)S(=O)(=O)c1ccc2[nH]cc(C(=O)NCCCN3CCOCC3)c(=O)c2c1,1.6,x
CC(=O)n1nc(C)c(Sc2ccc(C(F)(F)F)cn2)c1C,0.01,-0.6
CN(CC(=O)Nc1ccc(F)cc1)C(=O)Cn1nnc(-c2ccccc2)n1,x,-0.4

# Carrying on.
SMILES,CapD inh,AID504770
O=C1NC(=O)C(=Cc2ccc(N3CCCC3)o2)C(=O)N1,x,-0.55
Cc1cc(C)n(C)c(=O)c1C#N,8.5,x
NC(=S)c1ccc(O)cc1,x,1
O=c1[nH]c(CN2CCOCC2)nc2sc3c(c12)CCCC3,0.37,-0.8
C[N+](C)(C)CC(O)COc1ccccc1 (stereo not drawn),x,-0.55
O=C(O)CCCC(=O)N1CCN(c2ccccn2)CC1,11,0.75
COC(=O)c1cc(CSc2nc3ccccc3c(=O)n2C)oc1C,x,-0.8
CCOC(=O)c1noc(C)c1-c1csc(Nc2cc(C(F)(F)F)cc(C(F)(F)F)c2)n1,1.2,-0.55
CN1/C(=C\C(=O)Nc2cccnc2)c2ccccc2CC1(C)C,x,-0.7
CCN(C(=O)NCc1noc2ccccc12)c1ccccc1,-0.26,-0.1
CC1=C(C(=O)Nc2ccccn2)C(c2ccc(O)cc2)n2nnnc2N1 (stereo not drawn),0.18,x
CC(C)NCC(O)Cn1c2ccc(Cl)cc2c2cc(Cl)ccc21 (stereo not drawn),1.6,x
O=C1/C(=N\O)CC(OC(=O)c2ccccc2)C/C1=N/O (stereo not drawn),-1.2,1.4
Cc1nc2ccc3c(c2s1)CCCC3,-0.005,-0.4
CC(C)(C)c1nnc(/N=C/NO)s1,-0.015,-0.15

# Structures listed so far containing an NH in an aromatic ring (13):
SMILES,CapD inh,AID504770
c1ccc(Oc2cccc(CSc3ncn[nH]3)c2)cc1,-0.005,-0.5
CSc1ncc2c(=O)[nH]cnc2n1,1.1,-0.7
CC(C)(C)c1cc2cccnc2[nH]1,-0.06,-2.2
CN(C(=O)/C=C/c1ccco1)c1c(N)n(Cc2ccccc2)c(=O)[nH]c1=O,x,0.25
C/C(N)=C(/C#N)C(=O)CSc1nc2ccccc2c(=O)[nH]1,x,-1
Cc1cc2c(=O)n(-c3ccccc3)c(=S)[nH]c2s1,-0.6,x
CC1=NOC(=O)C1C(c1cccc(Br)c1)c1c(C)[nH]n(-c2ccccc2)c1=O (stereo not drawn),-0.6,-1.6
Nc1nc(SCC(=O)Nc2ccc3c(c2)OCO3)n[nH]1,x,-0.3
COC(=O)c1c[nH]n2c(=O)c(Cc3ccc(C)cc3)c(C)nc12,8.1,-0.05
Cc1cc(SC/C(O)=C(\C#N)c2nc3ccccc3[nH]2)nc2ccccc12,x,-0.05
O=C(CNS(=O)(=O)c1ccccc1)Nc1c(-c2ccccc2)c2cc(Br)ccc2[nH]c1=O,0.17,1.1
CN(c1ccc(F)cc1)S(=O)(=O)c1ccc2[nH]cc(C(=O)NCCCN3CCOCC3)c(=O)c2c1,1.6,x
O=c1[nH]c(CN2CCOCC2)nc2sc3c(c12)CCCC3,0.37,-0.8
